Screens (PubChem BioAssay)
Cruzain Triton = inhibitors of Trypanosoma cruzi cruzain with detergent; P25779; purified cruzain, Z-FR-AMC fluorescence, 0.01% Triton; Potency, µM, inactives show max response, negative = inhibition, most hits filed as inhibitors; 0.43% of 200,000 active; AID 1478; active means well fitted curve in the direction sought with a large enough effect; inconclusive means small, poorly fitted or top-dose-only effect, or another doubt; inactive means no such curve, though single readings can be large; an effect the other way counts as inactive or inconclusive;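 further: plate controls were neutral wells for no effect and buffer without enzyme for full effect; nearly all actives have a fitted effect of over 40% in size; top concentration of the series not given in the record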
Target sequence (P25779 123-467 limits assumed): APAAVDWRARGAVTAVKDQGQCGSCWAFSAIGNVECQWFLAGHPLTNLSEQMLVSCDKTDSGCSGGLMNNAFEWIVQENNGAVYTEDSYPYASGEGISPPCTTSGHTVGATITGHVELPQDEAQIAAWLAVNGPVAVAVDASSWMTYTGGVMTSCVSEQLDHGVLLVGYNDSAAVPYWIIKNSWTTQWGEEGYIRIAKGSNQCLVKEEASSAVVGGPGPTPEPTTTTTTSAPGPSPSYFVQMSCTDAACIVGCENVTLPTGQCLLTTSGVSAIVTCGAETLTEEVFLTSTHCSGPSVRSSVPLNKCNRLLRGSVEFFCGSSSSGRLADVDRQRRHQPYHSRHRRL
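Purified cruzain (1.5 nM final) was preincubated with compounds for 15 min at room temperature in 100 mM sodium acetate pH 5.5, 5 mM DTT, 0.01% Triton X-100. Reaction started with 2 uM Z-FR-AMC; AMC fluorescence change over 60 s gave activity.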
RE007 growth inh = less growth of the S. pombe RE007 Vpr strain; S. pombe RE007 Vpr strain, BacTiter-Glo ATP luminescence, 24 h; control for the full effect not named in the record; Potency, µM (highest dose often 92.2 µM), for inactives: top-dose activity change, negative = less growth; 0.21% of 360,000 active; AID 651644; active = well fitted falling curve with a large enough effect; inconclusive = small, poorly fitted or top-dose-only effect; inactive = no such curve, though single readings can be large or run the other way;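 further: on the % scale 0 is the no-effect control and ±100 the full control effect; nearly all actives have a fitted effect of over 50% in size; the assay follows cell death caused by Vpr and the record does not say whether a fall means rescue or toxicity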
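Fission yeast RE007 carrying one integrated HIV-1 vpr copy, seeded at OD 0.01 in PMG+AL medium with 23 nL pinned compound. Grown 24 h at 30 degrees; viability read by BacTiter-Glo luminescence after 5 min.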
Lassa entry inh = inhibitors of Lassa virus binding or cell entry; Potency, µM (doses to about 37.9 µM), for inactives: at the top dose activity change, negative = inhibition, actives largely listed as inhibitors; Lassa virus pseudotype entry inhibition, cell reporter; control for the full effect not named in the record; AID 540256; 1.2% of 300,000 active; active means well fitted inhibition curve with a large enough effect; inconclusive means small, poorly fitted or top-dose-only effect, or effect the other way; inactive means flat fitted curve, though single readings scatter; tested in HEK293 cells; further: on the % scale 0 is the no-effect control and ±100 the full control effect; nearly all actives have a fitted effect of over 50% in size; luciferase read-out
Cruzain noTriton = blocks cruzain activity in detergent-free assay; P25779; purified cruzain, Z-FR-AMC fluorescence, no detergent; Potency, µM, inactives show max response, negative = inhibition, actives largely listed as inhibitors; 2.3% of 200,000 active; active means well fitted curve in the direction sought with a large enough effect; inconclusive means small, poorly fitted or top-dose-only effect, or another doubt; inactive means no such curve, though single readings can be large; an effect the other way counts as inactive or inconclusive;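 further: plate controls were enzyme without inhibitor for no effect and buffer without enzyme for full effect; nearly all actives have a fitted effect of over 40% in size; top concentration of the series not given in the record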
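Detergent-free condition (0.00005% Triton X-100) in acetate buffer pH 5.5 with DTT. 1.5 nM enzyme and compound were pre-mixed 15 min, then 2 uM Z-FR-AMC substrate added; reaction progress from fluorescence change between first and third reads (60 s).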
Marburg entry inh = blocks Marburg virus binding to or entry into cells; Marburg virus pseudotyped entry inhibition, cell reporter; control for the full effect not named in the record; about a third of the inactives were read at about 46 µM; Potency, µM (top dose mostly 37.8 µM), without a hit: top-dose activity change, negative = inhibition, usual class: inhibitors; 1.8% of 300,000 active; AID 540276; active = well fitted inhibition curve with a large enough effect; inconclusive = small, poorly fitted or top-dose-only effect, or effect the other way; inactive = flat fitted curve, though single readings scatter; tested in HEK293 cells; about a fifth of its hits are not listed in these tables; further: on the % scale 0 is the no-effect control and ±100 the full control effect; luciferase read-out
2A StopGo = lowers the luciferase signal of an FMDV 2A StopGo reporter; human cells with a luciferase reporter of 2A StopGo recoding; control for the full effect not named in the record; Potency, µM (top dose mostly 57.9 µM), inactives show top-dose signal change, negative = less light; 1.2% of 410,000 active; active = well fitted falling curve with a large enough effect; inconclusive = small, poorly fitted or top-dose-only effect; inactive = no such curve, though single readings can be large or run the other way; tested in HEK293T cells; further: on the % scale 0 is the no-effect control and ±100 the full control effect; nearly all actives have a fitted effect of over 45% in size; luciferase light after 4 h
SARS PLP yeast = inhibitors of SARS-CoV papain-like protease in yeast. S. cerevisiae expressing SARS-CoV PLpro, growth rescue; control for the full effect not named in the record. Potency, µM (series often up to 32.9 µM), for inactives: at the highest dose activity, positive = growth rescue. 0.19% of 330,000 active. AID 485353; further: 0% is about no effect; nearly all actives have a fitted effect of over 55% in size; growth read by luminescence after 48 h
NS1 inh = inhibitors of influenza NS1 protein function. Potency, µM (doses to about 46.1 µM), inactives show at the highest dose activity, positive = more growth. 0.4% of 270,000 active. S. cerevisiae slowed by influenza A NS1, growth recovery by OD600; further: actives are rising curves; nearly all actives have a fitted effect of over 50% in size
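Growth recovery, yeast-based: influenza A NS1 expressed in S. cerevisiae causes slow growth, and suppressors are detected by OD600. The parent strain without NS1 is used as positive control.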
The depositor's hits bear a star; ? = inconclusive; . = not tested or not shown; [ ] = remark or other dose. Unless noted, the call rests on the fitted dose curve; in most records, active means well fitted rising curve with a large enough effect; inconclusive means small, poorly fitted or top-dose-only effect; inactive means no such curve, though single readings can be large or run the other way. Potency means the concentration at half of the fitted maximal effect.

SMILES | Cruzain Triton | RE007 growth inh | Lassa entry inh | Cruzain noTriton | Marburg entry inh | 2A StopGo | SARS PLP yeast | NS1 inh
COc1ccc(-c2noc(CCC(=O)N3CCC(c4cc(C)ccc4C)CC3)n2)cc1 | . | -9% | . | . | 1% | -5% | ? | .
CCOc1cc(C2Nc3ccccc3-c3nnc(SCc4ccccc4)nc3O2)ccc1OC (centres undefined) | -7.4% | . | 22%[46.1 µM] | 7% | 5%[46.1 µM] | 22% | . | .
COc1ccc(OC)c(CNS(=O)(=O)c2ccc3c(c2)oc(=O)n3C)c1 | 1.7% | . | 19%[46.1 µM] | 3% | 5%[46.1 µM] | 23% | . | .
COc1ccc(NC(=O)c2cnc3sccn3c2=O)cc1 | -2.3% | 18% | -12% | -15% | -8% | 54%[activator] | 0% | -18%
Cc1cccc(C(=O)NC(=S)Nc2ccc(N3CCOCC3)cc2)c1 | -12% | 5% | -17% | -7% | 7% | -9% | 3% | 11%
CCC(=O)Nc1cccc(NC(=S)NC(=O)c2ccc(Cl)cc2)c1 | -4.8% | -4% | 24% | 0% | 2% | -8% | 1% | 7%
NC(=O)C1CCN(C(=O)C2CCC(=O)N(Cc3ccc(Cl)cc3)C2)CC1 (centres undefined) | . | -10% | 5% | . | 11% | -24% | . | .
Cc1ccc(C(=O)NCC(=O)O)s1 | . | 10% | 14%[46.1 µM] | . | ? | -13% | -1% | -7%
COCCOC(=O)c1c(NC(=O)CNc2ccc(C)c(F)c2)sc(C(N)=O)c1C | . | 7% | -22% | . | -6% | -21% | 0% | -1%
CC(C)[C@H](NC(=O)[C@@H]1Cc2ccccc2CN1C(=O)OC(C)(C)C)C(=O)NC1CCCC1 | . | -8% | . | . | . | -14% | 0% | 11%
Clc1ccc(Cn2ncc3c(NCc4ccccc4)ncnc32)c(Cl)c1 | -5.1% | . | -1% | 1% | 3% | . | 19% | -2%
Cc1cc(C(=O)NN)c2cc(Br)ccc2n1 | -6.2% | 0% | -17% | 3% | -1% | -11% | 10% | 7%
CC(c1cccs1)N(Cc1ccco1)C(=O)Nc1ccc(Cl)c(Cl)c1 (centres undefined) | 0.6% | -7% | -25% | -1% | ? | -15% | -18% | 6%
CCNC(=O)n1cc(-n2cncn2)c(-c2ccccc2)n1 | . | 11% | 20%[46.1 µM] | . | 17%[46.1 µM] | -2% | 2% | -5%
Cc1ccc2c(c1)c1c(c(=O)n(Cc3ccccc3)c(=O)n1CC(=O)NCc1ccccc1Cl)n2C | -0.2% | . | -5%[46.1 µM] | 2% | 5%[46.1 µM] | -25% | . | .
COc1ccc(CN(C)Cc2c(O)ccc3cc(Br)ccc23)cc1OC | . | -16% | 4%[46.1 µM] | . | ? | -4% | 0% | 22%
COC1Cc2ccccc2N(C(N)=O)c2ccccc21 (centres undefined) | . | 0% | 34% | . | 10% | -2% | . | .
CC(=O)N/C(=C\c1ccc(F)cc1)C(=O)NC(C(=O)O)C(C)C (centres undefined) | . | -3% | -15% | . | -8%[46.1 µM] | 12% | 1% | .
Cc1ccc(CSCC(=O)NCCCN2CCOCC2)cc1 | . | 17% | . | . | . | -7% | 0% | -2%
CCOC(=O)c1sc(NC(=O)c2cccs2)nc1C | 2.3% | -5% | . | ? | 1% | 71%[activator] | -5% | -5%
Cc1nn(-c2ccccc2)c(OC(=O)C(C)(C)C)c1Sc1ccccc1 | 0.1% | . | ? | -6% | -2%[46.1 µM] | 0% | . | .
CC(=O)N1N=C(N)SC1c1cccc([N+](=O)[O-])c1 (centres undefined) | -21% | -3% | -4% | -17% | ? | 1% | 13% | 16%
C(=C\c1ccccc1)/C=N/Nc1nc2ccccc2[nH]1 | -17% | -11% | 0% | -4% | ? | 8% | -14% | -11%
Cc1cccc(N2CCN(C(=O)CN3C(=O)COc4ccc(S(=O)(=O)N5CCC(C)CC5)cc43)CC2)c1C | 0.1% | . | -5%[46.1 µM] | 1% | -2%[46.1 µM] | -9% | . | .

Taken from above.
Cc1ccc2c(c1)c1c(c(=O)n(Cc3ccccc3)c(=O)n1CC(=O)NCc1ccccc1Cl)n2C in Cruzain Triton: -0.2%
COC1Cc2ccccc2N(C(N)=O)c2ccccc21 (centres undefined) in 2A StopGo: -2%

Carrying on.
SMILES | Cruzain Triton | RE007 growth inh | Lassa entry inh | Cruzain noTriton | Marburg entry inh | 2A StopGo | SARS PLP yeast | NS1 inh
CCOc1ccc(/C=C/C(=O)c2ccc(-c3ccccc3)cc2)cc1 | -11% | 16% | 13% | -29% | ? | -8% | -1% | 28%
COc1ccc(C(=O)n2cnc(N)n2)cc1 | -0.1% | -23% | -9% | -3% | -10% | -10% | 0% | -5%
Cc1ccc(NC(=O)C2(S(=O)(=O)c3ccc(C)cc3)CC2)cc1 | 1.0% | -2% | -8% | 1% | 6% | -5% | 3% | -8%
CC(NC(=O)c1ccc(S(C)(=O)=O)cc1)c1cccc2ccccc12 (centres undefined) | . | -3% | 17% | . | 12%[46.1 µM] | -25% | -3% | -9%
O=C(COC(=O)c1ccc(S(=O)(=O)Nc2ccccc2)cc1)NCCC1=CCCCC1 | -6.5% | 10% | 1% | -2% | -1% | -2% | -14% | 10%
COCCN(C(=O)CSc1ncccn1)c1c(N)n(Cc2ccccc2)c(=O)[nH]c1=O | . | -5% | 10% | . | -33% | -4% | -2% | .
CC(=O)Nc1ccc(NC(=O)CSc2ncc(C(=O)Nc3ccc(F)cc3)c(=O)n2C)cc1 | . | 10% | -11% | . | -6% | -23% | 1% | .
C/C(=N\Nc1ccc(Cl)c(C(=O)O)c1)c1ccc(Br)s1 | . | -12% | 23%[46.1 µM] | . | ? | 6% | 0% | -43%
C[C@@H](NC(=O)[C@@H]1Cc2ccccc2CN1C(=O)OC(C)(C)C)C(=O)NC1CCCCC1 | . | -14% | -1%[46.1 µM] | . | 6%[46.1 µM] | 29% | 0% | 23%
O=C1NC(=O)C(Cc2ccc(Cl)cc2)(c2ccccc2)N1 (centres undefined) | . | 1% | ? | . | -21%[46.1 µM] | -14% | . | .
COc1ccc(NC(=O)Cn2c(=O)n(-c3ccc(Cl)cc3)c(=O)c3c(C)c(C(=O)N(C)C)sc32)cc1Cl | -1.3% | . | 0%[46.1 µM] | 4% | . | 0% | . | .
Cc1nc2ccccn2c1C(=O)CSc1ccc(Cl)cc1Cl | 3.9% | -12% | 0% | 12% | 3% | -13% | -1% | 5%

3 entries from above, as comma-separated lines:
Molecule,Cruzain Triton,RE007 growth inh,Lassa entry inh,Cruzain noTriton,Marburg entry inh,2A StopGo,SARS PLP yeast,NS1 inh
C/C(=N\Nc1ccc(Cl)c(C(=O)O)c1)c1ccc(Br)s1,.,-12%,23%[46.1 µM],.,?,6%,0%,-43%
CCOc1ccc(/C=C/C(=O)c2ccc(-c3ccccc3)cc2)cc1,-11%,16%,13%,-29%,?,-8%,-1%,28%
Cc1nc2ccccn2c1C(=O)CSc1ccc(Cl)cc1Cl,3.9%,-12%,0%,12%,3%,-13%,-1%,5%

(cont.)
SMILES | Cruzain Triton | RE007 growth inh | Lassa entry inh | Cruzain noTriton | Marburg entry inh | 2A StopGo | SARS PLP yeast | NS1 inh
N#Cc1ccc2ccn(CC(=O)NC3CCCCC3)c2c1 | -1.2% | 5% | 8% | -8% | -8% | 8% | 4% | 2%
COc1cc(/C=N/NC(=O)c2cnccn2)ccc1O | -4.5% | 6% | 5% | -12% | ? | 22% | 3.5µM* | 9%
Cc1ccnc(N2CCC(C(=O)Nc3ccc4c(c3)OCO4)CC2)n1 | -3.1% | -4% | 4% | -12% | -3% | -4% | -1% | -12%
COc1ccccc1-c1nnc(SCC(=O)N2CCOCC2)n1-c1ccccc1 | 2.6% | 26% | -16% | 13% | 12% | 7% | -6% | 4%
c1ccc(CCn2nnnc2C(c2cccs2)N2CCN(Cc3ccc4c(c3)OCO4)CC2)cc1 (centres undefined) | -0.3% | -12% | ? | 11% | ? | -20% | 5% | -5%
CCn1c(=O)c2cc(C(=O)Nc3cc(C)c(Cl)cc3OC)sc2c2ccccc21 | 0.4% | . | 18%[46.1 µM] | 0% | -2%[46.1 µM] | -5% | . | .
CC(=O)N1N=C(c2ccccc2)OC1(C)CC(=O)Nc1ccccc1 (centres undefined) | 5.2% | 0% | -10% | 1% | ? | -8% | 12% | -1%
COc1ccc(S(=O)(=O)Nc2ccc3ccccc3c2)cc1C | -5.1% | -11% | -4% | -4% | ? | 22% | -28% | -140%
Cc1c(NC(=O)/C=C/c2cccs2)c(=O)n(-c2ccccc2)n1C | -2.2% | -5% | 8% | 5% | 26% | -13% | 5% | 0%
N#CC(C(=O)O)=C1CCCC1 | 1.4% | -4% | 3% | -3% | 16% | -12% | 15% | 4%
COc1cc(OC)cc(C(=O)Oc2c(Sc3ccccc3)c(C)nn2C(C)(C)C)c1 | -4.3% | . | -20%[46.1 µM] | -6% | ? | ? | . | .
OC(c1ccccc1)C(O)C(c1ccccc1)N1CCCCC1 (centres undefined) | . | 3% | 2%[46.1 µM] | . | -21%[46.1 µM] | -11% | . | .
CC(=O)c1cc(-c2ccc(F)cc2)n(CCC(=O)Nc2nc3c(C)cccc3s2)c1C | -0.3% | . | -21%[46.1 µM] | -10% | . | 0% | . | .
Cn1ccnc1SCC(=O)Nc1cc(S(=O)(=O)N2CCOCC2)ccc1Cl | -3.2% | -9% | 14% | -3% | 16% | -11% | 19% | 14%
CCOC(=O)Cc1ccc(NC(=O)Nc2nnc(N3CCCCC3C)s2)cc1 (centres undefined) | -7.3% | . | -19%[46.1 µM] | ? | ? | ? | . | .
CCn1c(SCc2nc3ccccc3[nH]2)nnc1-c1ccccc1OC | 2.7% | -4% | -1% | -6% | -10% | 0% | 23% | 8%
CCC(C)NS(=O)(=O)c1ccc(NC(=O)C2CCN(C(=O)c3ccco3)CC2)cc1 (centres undefined) | . | 33% | -11% | . | 5%[46.1 µM] | -4% | -3% | -4%
Cc1ccc(NC(=O)CN(C)C(=O)c2ccc(-n3cncn3)c([N+](=O)[O-])c2)cc1 | . | -16% | -17% | . | -13%[46.1 µM] | -2% | 0% | .
